ID4 binder = binders of human ID4 protein, primary screen, biochemical, small molecule microarray, single point. DNA-binding protein inhibitor ID-4 (Homo sapiens), P47928. Flag-ID4 binding, fluorescence F/B. calls only. hit rate 1.2% among 31,000. AID 624137, 2012;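 active = spot signal over background at p below 0.07 in all four prints; compounds were printed on slides so no solution concentration is given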;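 note: a binder raises fluorescence above local background on the spot; about 2 pmol printed per array spot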
Target sequence (P47928 whole entry, looked up): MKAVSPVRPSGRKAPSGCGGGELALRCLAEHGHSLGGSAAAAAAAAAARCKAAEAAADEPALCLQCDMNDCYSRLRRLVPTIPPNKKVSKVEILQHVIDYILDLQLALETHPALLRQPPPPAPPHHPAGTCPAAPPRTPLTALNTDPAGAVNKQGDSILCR
Calls only; i = inactive; + = active, no number. These rows are one share of the data; count on the stated rates, not on these rows.

Start of the data: the first three records, to show the layout:
mol	ID4 binder
CS(=O)(=O)N(CC(=O)NC1CCCC1)c1cc(Cl)c(Cl)cc1Cl	i
CNC[C@@H]1Oc2cc(-c3ccccc3F)ccc2S(=O)(=O)N([C@@H](C)CO)C[C@@H]1C	i
C[C@@H]1CN([C@@H](C)CO)S(=O)(=O)c2ccc(C3=CCCCC3)cc2O[C@@H]1CN(C)S(=O)(=O)c1cn(C)cn1	i

The whole of this part (from the top)
mol	ID4 binder
CS(=O)(=O)N(CC(=O)NC1CCCC1)c1cc(Cl)c(Cl)cc1Cl	i
CNC[C@@H]1Oc2cc(-c3ccccc3F)ccc2S(=O)(=O)N([C@@H](C)CO)C[C@@H]1C	i
C[C@@H]1CN([C@@H](C)CO)S(=O)(=O)c2ccc(C3=CCCCC3)cc2O[C@@H]1CN(C)S(=O)(=O)c1cn(C)cn1	i
COc1ccccc1NC(=O)CSc1nnnn1-c1cccc(C)c1C	i
CC(C)=CCN(CC#Cc1ccccc1)[C@H](CO)c1ccccc1	i
CO[C@@H]1CN(C)C(=O)c2cc(NC(=O)C3CCOCC3)ccc2OC[C@@H](C)NC[C@H]1C	i
COc1cccc2cc(-c3nnc(SCC(=O)Nc4sc5c(c4C#N)CCCC5)n3C)oc12	i
O=C(N[C@@H]1C=C[C@H](CC(=O)N2CCN(c3ccccc3)CC2)O[C@H]1CO)c1ccccc1	i
C[C@@]1(C2CCCC2)Cc2cc(OCC(=O)O)c(Cl)c(Cl)c2C1=O	i
COc1ccccc1CC(=O)Nc1ccc(-c2noc(-c3ccc(OC)c(OC)c3)n2)cc1	i
O=C1Cc2ccccc2N1c1c(Cl)cccc1Cl	i
CCCN(C)C[C@H]1Oc2ncc(-c3ccccc3)cc2C(=O)N([C@@H](C)CO)C[C@@H]1C	i
O=C(N[C@H]1CC[C@@H](CC(=O)N2CCCCC2)O[C@H]1CO)c1cccc(F)c1	i
Cn1nnnc1SCC(=O)Nc1cc(Cl)cc(Cl)c1	i
C[C@H]1CN([C@@H](C)CO)C(=O)c2cc(N(C)C)ccc2O[C@@H]1CN(C)Cc1ccc(C(F)(F)F)cc1	i
CCCC#Cc1cnc2c(c1)C(=O)N([C@H](C)CO)C[C@@H](C)[C@H](CN(C)C(=O)c1cccc(F)c1)O2	i
Cc1ccc(OCC(=O)Nc2ccc(-c3nc4ccccc4s3)c(O)c2)c(C)c1	i
Cc1ccc(C(=O)Nc2sc3c(c2C(=O)NCc2ccco2)CCCC3)cc1	i
Cc1cc(N(CC(=O)Nc2cccc(C(F)(F)F)c2)S(C)(=O)=O)ccc1Br	i
COC(=O)CN(c1cccc(C(C)=O)c1)S(C)(=O)=O	i
O=C(C[C@@H]1C=C[C@@H](NC(=O)C2CCC2)[C@H](CO)O1)NCC1CC1	i
COc1ccccc1NC(=O)C1=C(C)Nc2ncnn2C1c1ccccc1C(=O)O (configuration not stated)	i
Cc1noc(C)c1CSc1nc2sc(C)c(C)c2c(=O)n1C1CCCC1	i
COC(=O)CSc1nc(C)c2c(n1)CCCC2	i
C[C@@H]1CN([C@H](C)CO)S(=O)(=O)c2ccc(-c3ccccc3)cc2O[C@@H]1CN(C)C	i

Some of the entries above in a different format.
structure: C[C@@H]1CN([C@@H](C)CO)S(=O)(=O)c2ccc(C3=CCCCC3)cc2O[C@@H]1CN(C)S(=O)(=O)c1cn(C)cn1
  ID4 binder: i
structure: COc1ccccc1NC(=O)CSc1nnnn1-c1cccc(C)c1C
  ID4 binder: i
structure: CC(C)=CCN(CC#Cc1ccccc1)[C@H](CO)c1ccccc1
  ID4 binder: i

More structures
mol	ID4 binder
O=C(Nc1ccc(Cl)cc1Cl)C1CC(=O)n2ncnc2N1 (configuration not stated)	i
Nc1nnc(SCC(=O)Nc2ccc(F)c(Cl)c2)s1	i
C=CCNC(=O)[C@H]1[C@@H]2C(=O)O[C@@H](c3ccccc3)[C@@H](c3ccccc3)N2[C@@H](c2ccc(OCCO)cc2)[C@]12C(=O)Nc1ccc(C#CCNC(N)=O)cc12	i
C[C@H]1CN([C@@H](C)CO)S(=O)(=O)c2ccc(-c3ccc(F)cc3)cc2O[C@H]1CN(C)C	i
C[C@H](CO)N1C[C@H](C)[C@@H](CN(C)C(=O)c2cccc(F)c2)Oc2cc(-c3cccnc3)ccc2S1(=O)=O	i
C/C=C/c1ccc([C@H]2[C@@H](CO)N(C(=O)Nc3ccccc3F)[C@H]2C#N)cc1	i
Cc1ccc(-c2cnc3c(c2)C(=O)N([C@@H](C)CO)C[C@@H](C)[C@H](CN(C)C(=O)c2ccccc2)O3)cc1	i
CCOC(=O)N(C)C[C@H]1OCc2ccccc2-c2ccccc2C(=O)N([C@H](C)CO)C[C@@H]1C	i
CO[C@@H](CN(C)C(=O)Nc1ccc(C(F)(F)F)cc1)[C@@H](C)CN(Cc1ccccc1Cl)[C@@H](C)CO	i
O=C(Nc1cccc(Cn2cccn2)c1)c1cc(-c2ccncc2)nc2ccc(Br)cc12	i
O=C(C[C@H]1CC[C@H](NC(=O)CC2CC2)[C@@H](CO)O1)NCc1ccc(Cl)cc1	i
C[C@H]1CN([C@@H](C)CO)S(=O)(=O)c2ccc(C#Cc3ccncc3)cc2O[C@H]1CN(C)S(=O)(=O)c1ccc(F)cc1	i
COc1cc(OC)cc(-c2nnc(SCC(=O)c3cccc([N+](=O)[O-])c3)o2)c1	i
COC(=O)c1ccccc1NC(=O)CSc1nnc(C23CC4CC(CC(C4)C2)C3)n1C	i
C[C@@H]1CN([C@@H](C)CO)C(=O)c2cc(-c3ccc(C(=O)N(C)C)cc3)cnc2O[C@H]1CN(C)C	i
COc1ccc(NC(=O)C(=O)NCc2cccnc2)cc1OC	i
COc1ccc(Br)cc1S(=O)(=O)Nc1ccc(Cl)cn1	i
O=c1c(O[C@@H]2O[C@H](CO)[C@H](O)[C@H](O)[C@H]2O)c(-c2cc(O)c(O)c(O)c2)oc2cc(O)cc(O)c12	i
COc1ccccc1NC(=O)C1=C(C)Nc2nnnn2C1c1ccccn1 (configuration not stated)	i
CC(C(=O)Nc1ccccc1Cl)N(c1ccc(Cl)cc1)S(C)(=O)=O (configuration not stated)	i
CCCNC(=O)N(C)C[C@H]1Oc2ncc(-c3ccc(C(=O)N(C)C)cc3)cc2C(=O)N([C@H](C)CO)C[C@H]1C	+
O=C(O)CCC(=O)N1N=C(c2cccs2)CC1c1ccco1 (configuration not stated)	i
O=C(Nc1ccc(Cl)cc1)c1csc(COc2ccc3nonc3c2)n1	i
COC(=O)CSc1nnc(-c2sc3ccccc3c2Cl)n1-c1ccccc1	i
CC(=O)N(C)C[C@@H]1OCc2ccccc2-c2ccccc2C(=O)N([C@@H](C)CO)C[C@H]1C	i
N#C[C@@H]1[C@@H](c2ccc(-c3ccc(F)cc3)cc2)[C@@H](CO)N1C(=O)Cc1ccccc1	i
C[C@H]1CN([C@@H](C)CO)C(=O)c2cc(-c3ccccc3)cnc2O[C@@H]1CN(C)Cc1ccccc1	i
COC(=O)[C@@]1(CCS(=O)(=O)c2ccccc2)N=C(c2ccc(OCCCO)cc2)O[C@H]1c1ccccc1	i
O=C(Nc1c(F)cccc1F)C1CN(S(=O)(=O)c2ccccc2)CCN1S(=O)(=O)c1ccccc1 (configuration not stated)	i
CN(C)C(=O)C[C@H]1CC[C@H](NC(=O)C2CC2)[C@@H](CO)O1	i
CCOc1ccccc1C(=O)Nc1ccc(S(=O)(=O)Nc2nc(C)cc(C)n2)cc1	i
C[C@@H]1CN([C@@H](C)CO)C(=O)c2cc(-c3cccc(F)c3)cnc2O[C@H]1CN(C)Cc1ccccc1	i
Cc1ccc2c(c1)c1nc3ccccc3nc1n2CC(=O)N(c1ccccc1)C(C)C	i
Cc1ccc(OCC(O)CNc2ccc(Br)c(C(F)(F)F)c2)cc1C (configuration not stated)	i
O=C(C[C@@H]1CC[C@@H](NC(=O)Nc2cc(F)ccc2F)[C@H](CO)O1)NCc1ccncn1	i
COC1=C/C(=C/c2c(N)n3c(SC(C)C)nsc3nc2=O)C=CC1=O	i
COc1c(O[C@@H]2O[C@H](CO)[C@@H](O)[C@H](O)[C@H]2O)cc2c(c1OC)-c1ccc(SC)c(=O)cc1C(NC(C)=O)CC2 (some centres not stated)	i
COC(=O)c1ccc(Cl)c(NC(=O)CN(c2ccc(I)cc2)S(C)(=O)=O)c1	i
O=C(C[C@H]1CC[C@H](NC(=O)Nc2ccc3c(c2)OCO3)[C@H](CO)O1)NCc1ccc(Cl)cc1	i
CCC(=O)N(C)C[C@H]1Oc2cc(-c3ccc(OC)cc3)ccc2S(=O)(=O)N([C@H](C)CO)C[C@H]1C	i
Cc1sc2ncnc(SCC(=O)C(C)(C)C)c2c1C	i
CN(C)CC(=O)Nc1ccc2c(c1)[C@@H]1C[C@H](CC(=O)NCCc3ccccc3)O[C@@H](CO)[C@@H]1O2	i
COc1ccc(N(CC(=O)Nc2ccccc2C(=O)O)S(C)(=O)=O)cc1	i
CN(CC(=O)Nc1ccc(Nc2ccccc2)cc1)S(=O)(=O)c1cc(Cl)ccc1Cl	i
CC(C)c1ccc2c(c1)c1c3c(cncn32)CCC1	i
CN(C)c1ccc2c(c1)[C@H]1C[C@@H](CC(=O)NCc3ccc(Cl)cc3)O[C@@H](CO)[C@H]1O2	i
Cc1ccc(S(=O)(=O)N(C)CC(=O)Nc2ccccc2Br)cc1	i
C[C@H]1CN([C@@H](C)CO)C(=O)c2cc(NC(=O)C3CC3)ccc2O[C@@H]1CN(C)CC1CCCCC1	i
CO[C@@H](CN(C)S(=O)(=O)c1ccc(F)cc1)[C@H](C)CN(C(=O)Nc1ccccc1F)[C@H](C)CO	i
CC(=O)N(C)C[C@@H]1Oc2ncc(C#Cc3ccccc3)cc2C(=O)N([C@@H](C)CO)C[C@@H]1C	i

Remaining list, next part:
canonical_smiles | ID4 binder
O=C(COc1ccc([N+](=O)[O-])cc1)Nc1ccccc1OC(F)F | i
COC(=O)c1sccc1NC(=O)CSc1nnnn1-c1ccccc1F | i
CCOc1ccc(-c2nc(SCc3ccc(C(=O)OC)o3)n[nH]2)cc1 | i
O=C(C[C@H]1CC[C@H](NC(=O)C2CC2)[C@H](CO)O1)NC1CCC1 | i
COC(=O)c1ccccc1NC(=O)COc1cc(C)ccc1C(C)C | i
COc1ccccc1OCC(=O)Nc1cc(Cl)ccc1O | i
O=C(Cn1cc(C(=O)c2ccccc2)c2ccccc21)Nc1ccc(Cl)cc1 | i
COC(=O)c1ccc(C2C(C(=O)c3cc4ccccc4o3)C(=O)C(=O)N2Cc2ccncc2)cc1 (configuration not stated) | i
CO[C@H](CN(C)S(=O)(=O)c1cn(C)cn1)[C@@H](C)CN(C(=O)Nc1ccc(C(F)(F)F)cc1)[C@@H](C)CO | i
COc1cccc(C(=O)Nc2ccc(NC(=O)C3C4C=CC(C4)C3C(=O)O)cc2)c1 (configuration not stated) | i
C[C@H]1CN([C@@H](C)CO)C(=O)c2cc(-c3ccc(F)cc3)cnc2O[C@H]1CN(C)CC1CCOCC1 | i
CCOc1ccc(NC(=O)CSc2ncccn2)cc1 | i
COc1ccccc1S(=O)(=O)N[C@H]1CC[C@H](CC(=O)N2CCCCC2)O[C@@H]1CO | i
Cc1ccc(OCC(=O)Nc2cc(-c3nc4ccc(C)cc4o3)ccc2Cl)c(C)c1 | i
C/C=C/c1ccc2c(c1)O[C@@H](CN(C)C(=O)C1CCOCC1)[C@@H](C)CN([C@@H](C)CO)S2(=O)=O | i
COC(=O)c1ccccc1NC(=O)COc1ccc(Br)cc1C | i
Cn1c(SCC(=O)c2ccc([N+](=O)[O-])cc2)nnc1-c1cccnc1 | i
COc1cccc(C2CC(C(F)(F)F)n3ncc(C(=O)NCc4cccnc4)c3N2)c1 (configuration not stated) | i
COc1ccccc1-n1c(N)cc(=O)nc1SCC(=O)Nc1ccc(Br)cc1 | i
COc1ccc(S(=O)(=O)N2CCOCC2)cc1C(=O)Nc1ccc(S(=O)(=O)C(F)F)cc1 | i
CS(=O)(=O)Nc1ccc(C2=NN(S(C)(=O)=O)C(c3ccccc3F)C2)cc1 (configuration not stated) | i
CCOc1ccc2c(=O)c(Oc3ccccc3Br)coc2c1 | i
C[C@H](NC(=O)C[C@H]1CC[C@@H](NC(=O)c2cccnc2)[C@H](CO)O1)c1ccccc1 | i
COc1cccc(-c2ccc3c(c2)O[C@@H](CN(C)Cc2cncnc2)[C@@H](C)CN([C@@H](C)CO)S3(=O)=O)c1 | i
COc1cc(OC)cc(OCC(O)Cn2cnc3ccccc32)c1 (configuration not stated) | i
CC1(C)CC(n2c(SCC(N)=O)nc3c(c2=O)C2(CCCC2)Cc2ccccc2-3)CCO1 (configuration not stated) | i
C[C@H]1CN([C@@H](C)CO)C(=O)c2cc(C3=CCCCC3)cnc2O[C@H]1CN(C)Cc1ccccc1 | i
COc1ccc(C)cc1S(=O)(=O)N(CC(N)=O)c1ccc(Cl)cc1 | i
Cc1cc(C(F)(F)F)nc(SCC(=O)c2cccc([N+](=O)[O-])c2)n1 | i
CCOC(=O)c1c(NC(=O)COc2ccccc2Br)sc(C)c1C | i
CCCC#Cc1cnc2c(c1)C(=O)N([C@H](C)CO)C[C@@H](C)[C@H](CN(C)Cc1cccnc1)O2 | i
COc1ccc(NC(=O)CCCN2C(=O)c3ccccc3C2=O)cc1Cl | i
Cc1cc(=O)[nH]c(SCC(=O)N2CCc3ccccc3C2)n1 | i
O=C1c2cccc3cccc(c23)C(=O)N1CC1CCN(CC(O)COc2c(F)cc(Br)cc2F)CC1 (configuration not stated) | i

A second format for some results above:
CC1(C)CC(n2c(SCC(N)=O)nc3c(c2=O)C2(CCCC2)Cc2ccccc2-3)CCO1 (configuration not stated)
  ID4 binder = i
Cc1cc(=O)[nH]c(SCC(=O)N2CCc3ccccc3C2)n1
  ID4 binder = i
